TRPML1 agonist – activates the human TRPML1 channel | Q9GZU1 | TRPML1-expressing cells, Ca2+ dye fluorescence, FDSS; host cell line not named in the record; reference of the full effect not given here | activation, % (concentration not given with the values) | 410,000 compounds, 0.12% hits | AID 624414; in the data active = activation above about 50%; inconclusive = about 30% to 50%; inactive = below about 30%; further: 0% is about no effect; the text of the record puts the active cut at 80%
Target sequence (Q9GZU1 whole entry, looked up): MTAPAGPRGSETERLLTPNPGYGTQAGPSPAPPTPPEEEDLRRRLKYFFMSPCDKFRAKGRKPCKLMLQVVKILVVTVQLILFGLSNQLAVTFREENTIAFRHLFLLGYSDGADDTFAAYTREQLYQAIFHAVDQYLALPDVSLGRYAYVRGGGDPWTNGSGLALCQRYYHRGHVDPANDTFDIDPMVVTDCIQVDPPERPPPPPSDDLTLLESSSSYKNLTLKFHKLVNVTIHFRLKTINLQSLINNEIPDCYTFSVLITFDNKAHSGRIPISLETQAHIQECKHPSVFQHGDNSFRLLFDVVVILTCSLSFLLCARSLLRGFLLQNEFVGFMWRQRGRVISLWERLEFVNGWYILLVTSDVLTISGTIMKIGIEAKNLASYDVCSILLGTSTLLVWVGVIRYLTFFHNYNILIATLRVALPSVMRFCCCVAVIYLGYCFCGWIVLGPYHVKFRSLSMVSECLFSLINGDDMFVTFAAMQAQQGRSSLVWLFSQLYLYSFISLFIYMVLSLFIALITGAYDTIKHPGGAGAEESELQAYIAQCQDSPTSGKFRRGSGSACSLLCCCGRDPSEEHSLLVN
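TRPML1-DL cells, Tet-induced overnight (~16 h, 37 degrees C), loaded 45-90 min at room temperature with Ca8 no-wash calcium dye plus quencher. FDSS fluorescence: 10 s baseline, compound pin-transfer, 110 s agonist read, then EC80 54-4 (4uM final) and 110 s antagonist read.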
TRPML1 inh – human mucolipin-1 channel inhibition; 390,000 compounds, 0.02% hits; AID 624415; activity change, negative = inhibition, % (test concentration not listed); TRPML1-inducible cells, Ca2+ dye fluorescence, FDSS; active compounds read low; inhibition of EC80 agonist-evoked calcium signal; in the data active means activity change below about -50%; inconclusive means about -30% to -50%; inactive means above about -30%;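 further: stimulus is agonist 54-4 at its EC80 concentration; on the % scale 0 is the no-effect control and ±100 the full control effect; compound concentration not given in the record; the text of the record puts the active cut at -80%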
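TRPML1-DL cells, Tet-induced overnight (~16 h, 37 °C) at 1,500 cells/well, were loaded with Ca8 no-wash dye plus quencher for 45-90 min at room temperature. Compounds were pinned during FDSS kinetic reading; agonist 54-4 at EC80 (4 uM final) then added.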
PINK1 expr mod – PINK1 expression modulation | PINK1 immunofluorescence, high-content cytometry, 24 h | Potency, µM (titrated, usually from 76.6 µM), inactives show at the top dose activation (PINK1 increase), usual class: activators | 410,000 compounds, 0.2% hits; active = well fitted activation curve with a large enough effect; inconclusive = small, poorly fitted or top-dose-only effect; inactive = flat fitted curve, though single readings scatter; cell line not stated here;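 further: potency means the concentration at half of the fitted maximal effect; % of control where 0% means no effect; nearly all actives have a fitted effect of over 65% in size; a mitochondrial uncoupler was the plate control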
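Readout is PINK1 immunofluorescence, quantified alongside mitochondrial, cell and nuclear markers by laser-scanning microplate cytometry. Cells from a stable line were exposed to compound titrations (5 concentrations) for 24 hours, with CCCP controls.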
Menin MLL FP FL – menin-MLL binding inhibition, fluorescein peptide; Fluorescence polarization, fluorescein-MLL peptide displacement from menin; FP activity change, % at 61.4 µM; 290,000 tested, under 10 active; AID 1766; inconclusive = falling polarisation curve, or a change in total fluorescence; inactive = total fluorescence flat and polarisation flat or rising; no compound was filed as active; the % refers to the polarisation; negative = inhibition;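 further: % of control where 0% means no effect; inhibitors lower the polarisation; unlabelled MLL peptide was the positive control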
TRPV1 potentiator – enhances activation of the human vanilloid receptor TRPV1. Q8NER1. TRPV1-expressing cells, Fluo-8 calcium influx, capsaicin EC20 potentiation; host cell line not named in the record; control for the full effect not named in the record. potentiation, % at 8.33 µM. 320,000 compounds, 0.02% hits. AID 540277; active means potentiation above 80%; inconclusive means 30% to 80%; inactive means below 30%; further: 0% is about no effect
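TRPV1-expressing cells were cultured overnight at 35.5C and loaded with Fluo-8 calcium dye for 40 to 90 min at room temperature. After a 10 s baseline, compound was added and calcium influx was read kinetically for 3 min (ex 480/em 520 nm).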
Sfp PPTase inh – Sfp phosphopantetheinyl transferase inhibition; Q9F4F7; Biochemical Sfp PPTase activity, qHTS; Potency, µM, for the others: max response, negative = inhibition, actives largely listed as inhibitors; 310,000 compounds, 3.5% hits; active means well fitted inhibition curve with a large enough effect; inconclusive means small, poorly fitted or top-dose-only effect, or another doubt; inactive means no such curve, though single readings can be large or run the other way;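 further: the enzyme is Sfp with the accession as filed and its product quenches rhodamine fluorescence; potency means the concentration at half of the fitted maximal effect; 0% = enzyme reaction without inhibitor and -100% = no enzyme wells; top concentration of the series not given in the record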
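After 15 min at room temperature with compound, 15 nM Sfp received 5 uM rhodamine-CoA plus 12.5 uM BHQ-2-ybbR (50 mM Hepes pH 7.6, 10 mM MgCl2). Rate came from the fluorescence difference over 30 min, ex 525/em 598 nm.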
ClpP mod – qHTS Assay for Activators of ClpP | ATP-dependent Clp protease proteolytic subunit (Bacillus subtilis (strain 168)), P80244 | purified B. subtilis ClpP, FRET peptide cleavage, 20 min | Potency, µM (highest dose often 57.5 µM), without a hit: top-dose activity change, negative = active | 340,000 compounds, 1.9% hits; active = well fitted falling curve with a large enough effect; inconclusive = small, poorly fitted or top-dose-only effect; inactive = no such curve, though single readings can be large or run the other way; further: potency means the concentration at half of the fitted maximal effect; the source files actives as falling curves though it sought activators and does not explain the sign; nearly all actives have a fitted effect of over 65% in size; many hits overshoot -100%
Target sequence (P80244 whole entry, looked up): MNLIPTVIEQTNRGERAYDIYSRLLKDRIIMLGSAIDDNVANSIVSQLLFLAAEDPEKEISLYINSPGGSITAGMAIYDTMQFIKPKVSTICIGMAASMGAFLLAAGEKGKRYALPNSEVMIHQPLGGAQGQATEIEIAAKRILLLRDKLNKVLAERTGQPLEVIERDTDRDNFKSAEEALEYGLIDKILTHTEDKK
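Purified B. subtilis ClpP, 10 microg/mL final in Tris/HCl pH8 with KCl, BSA, glycerol and Tween-20, cleaved an Abz/nitrotyrosine-quenched decapeptide. Fluorescence (ex 320, em 430) was read at 0 and 20 min at room temperature. Delta was normalized to 5.8 microM ADEP and DMSO/no-enzyme controls.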
Active calls of the source: *; ? = inconclusive; nt = not tested or not shown; & = joins results of further samples; [ ] = another dose, or the depositor's remark.

Order of values: TRPML1 agonist	TRPML1 inh	PINK1 expr mod	Menin MLL FP FL	TRPV1 potentiator	Sfp PPTase inh	ClpP mod
(1) Cc1c(Cl)cnc(NC(=O)COC(=O)[C@@H](NC(=O)c2ccco2)C(C)C)c1Cl
    -0.2	8	0.5%	nt	nt	nt	-5.5%
(2) CCCCn1c(=O)[nH]c(=O)c2c1nc(-c1ccc(CC)c([N+](=O)[O-])c1)n2C
    nt	nt	nt	-3.6	4	3%	nt
(3) O=C(Nc1nc(-c2ccc3c(c2)OCCO3)cs1)c1ccc(Br)o1
    0.3	6	0.4%	nt	nt	nt	-4.3%
(4) O=C(NCc1ccccn1)c1ccc2c(c1)N(Cc1ccccc1)CCS2
    2.0	48	0.0%	2.1	-23	?	3.3%
(5) COc1ccc(OC(=O)COc2ccccc2C)cc1
    2.1	-23	4.4%	nt	nt	nt	2.3%
(6) O=C(CCc1nnc(Cc2ccc3c(c2)OCO3)o1)NCCc1ccccc1Cl
    -0.1	-5	0.5%	nt	-27	-1%	-3.7%
(7) Cc1ccccc1N1C(=O)c2cccc3cccc(c23)C1=O
    -0.2	2	0.4%	?	0	50µM*	-18%
(8) COCCNC(=S)N/N=C(\C)c1ccccc1OC
    -0.3	12	0.7%	0.7	-7	5%	2.8µM*
(9) CCCOc1ccc(F)cc1-c1cc(C(=O)NCc2cccs2)[nH]n1
    0.7	nt	7.6%	nt	nt	nt	-22%
(10) c1nnnn1C12CC3CC(CC(C3)C1)C2
    -0.2	9	-0.3%	0.3	2	-20%	1.7%
(11) Cn1c(=O)[nH]c(=O)c2c1nc(N1CCOCC1)n2CC(O)COc1ccc2ccccc2c1 (stereo not given)
    -1.0	-22	0.9%	-1.9	2	0%	11%
(12) Cc1cc(C)nc(-n2ncc3c2CC(C)CC3=O)n1 (stereo not given)
    -0.2	-1	-0.1%	-7.5	-8	0%	-0.2%
(13) NC(=O)C1CCN(CC(=O)Nc2cc(Cl)ccc2Oc2ccccc2)CC1
    -0.7	12	1.5%	3.6	1	3%	nt
(14) Cc1cc(=O)[nH]c(=S)[nH]1
    -0.2	-12	-0.2%	6.0&0.8	-5	32µM*	1.7%
(15) CC(C)C(NC(=O)c1ccc(Br)cc1)C(=O)NC1=NCCS1 (stereo not given)
    0.2	11	1.4%	-1.5	-2	1%	-1.3%
(16) Cc1cc2c(cc1S(=O)(=O)Nc1cccc(C)c1C)n(C)c(=O)c(=O)n2C
    1.2	40	2.0%	3.6	-14	10%	-4.9%
(17) CC1CCN(c2nc3c(c(=O)[nH]c(=O)n3C)n2Cc2ccccc2Cl)CC1
    -1.2	-7	1.1%	-1.0	3	-5%	2.4%
(18) CCc1nnc(NC(=O)CSc2nccn2Cc2ccc(F)cc2)s1
    0.4	-2	-5.3%	nt	nt	nt	-4.8%
(19) COc1cccc(OCc2nn[nH]n2)c1
    -0.4	10	-1.4%	-2.8	?	-8%	-1.0%
(20) Cc1ccc(S(=O)(=O)NCC(=O)OCc2csc(-c3ccccc3)n2)cc1
    1.1	-10	0.6%	6.6	2	-11%	-0.5%
(21) COc1cc(CN2C[C@@H](CO)O[C@@H](n3cnc4c(N5CCN(c6ccccc6)CC5)ncnc43)C2)cc(OC)c1OC
    -0.2	nt	0.8%	nt	nt	nt	-4.2%
(22) COC(=O)c1ccc(C(=O)OC)c(NC(=O)c2cc3nc(-c4ccc(C)cc4)cc(C(F)(F)F)n3n2)c1
    -0.6	-11	2.7%	nt	nt	nt	?
(23) CCCS(=O)(=O)NC(=O)C1(C)CCCN(C(=O)c2ccccc2Br)C1 (stereo not given)
    -0.3	nt	0.6%	nt	nt	nt	0.4%
(24) Cc1ccsc1C(C(=O)NCc1ccccc1)N(C(=O)c1csnn1)c1ccccc1 (stereo not given)
    -0.5	19	-1.0%	3.6	-6	8%	nt
(25) Clc1ccc(Nc2nc(NCCN3CCOCC3)nc(N3CCOCC3)n2)cc1
    0.4	24	6.2%	3.7	-19	-5%	-1.3%
(26) CCOc1cc(N2CCOCC2)c(OCC)cc1NC(=O)CN1CCN(Cc2ccc3c(c2)OCO3)CC1
    0.3	-13	1.4%	-0.2	-10	10%	nt
(27) COc1ccc(-c2noc(-c3ccc(NC4CCCC4)c([N+](=O)[O-])c3)n2)cc1
    -0.8	-3	0.5%	nt	nt	nt	0.7%
(28) CN1CCN(NC(=O)/C=C/c2cccc([N+](=O)[O-])c2)CC1
    1.0	-11	0.7%	-1.2	-4	9%	nt
(29) CCOC(=O)c1cnc2oc3ccccc3n2c1=O
    -0.2	-2	-1.0%	12	21	9%	1.5%
(30) CC(=O)c1ccc(C(=O)N2CCCC(Nc3ccccc3)C2)s1 (stereo not given)
    1.3	-6	-0.3%	-4.7	-18	3%	1.0%
(31) CC(=O)Cc1nsc(NC(=O)c2cccs2)n1
    -0.8	17	3.3%	3.0	-3	4%	0.8%
(32) O=C(O)c1c(F)c(F)cc2ccccc12
    -0.2	17	0.0%	-0.9	5	0%	-0.2%
(33) COc1ccc(N(C(=O)c2ccncc2)S(=O)(=O)c2ccccc2)cc1
    0.3	-3	0.9%	nt	-4	20%	0.6%
(34) N#Cc1ccc(OCC(=O)Nc2cc(S(=O)(=O)N3CCOCC3)ccc2N2CCOCC2)cc1
    -0.3	-16	0.3%	2.8	-4	14%	nt
(35) CCCCCCc1cc2cc(-c3nnc(-c4ccccc4OC)o3)c(=O)oc2cc1O
    ?	-26	?	?	18	?	-0.1%
(36) CCn1c(COc2ccc3c(c2)CCCC3)nnc1SCC(=O)Nc1nccs1
    0.7	-7	-0.9%[38.3 µM]	1.1	-9	15%	0.4%
(37) Cc1cc2oc(C(=O)NCc3ccncc3)c(C)c2cc1C
    -0.9	7	1.5%	-0.2	4	-5%	4.6%
(38) Cc1ccc(SCC(=O)N(C)CC(=O)Nc2cccc(F)c2)c(C)c1
    1.8	5	-0.4%	nt	-7	nt	-2.3%
(39) COC(=O)c1ccc(C)c(NC(=O)c2ccc(CN3CCc4ccccc4C3)cc2)c1
    1.5	1	1.2%	6.4	-12	?	1.4%
(40) Oc1[nH]c2ccccc2c1OCc1ccncc1
    0.2	12	-0.6%	0.0	8	17%	2.6%
(41) COc1ccc(C(=O)N2CCN(c3ccccc3)CC2)cc1S(=O)(=O)NC1CC1
    -0.1	-24	5.3%	nt	4	nt	0.0%
(42) COc1ccc(Cl)cc1N(CC(=O)NC1CC2CCC1C2)S(=O)(=O)c1ccccc1 (stereo not given)
    0.2	3	2.3%	nt	-15	6%	-0.4%
(43) COc1cccc2cc(C(C)N(CCCN3CCOCC3)C(=S)Nc3ccc(C)cc3)oc12 (stereo not given)
    0.3	3	3.8%	4.6	18	9%	nt
(44) COc1ccc(C(=O)OCC(=O)c2cc(C)n(CC3CCCO3)c2C)cc1[N+](=O)[O-] (stereo not given)
    -0.1	6	-0.9%	nt	9	nt	-2.7%
(45) O=C(NC1CCCC1)C(c1ccncc1)N(Cc1ccccc1)C(=O)Cc1cccs1 (stereo not given)
    3.1	24	0.6%[38.3 µM]	10	24	-4%	-2.5%
(46) Cc1ccc(S(=O)(=O)Nc2c(C)ccc3nsnc23)cc1
    -0.3	-8	-2.1%	4.0	-2	15%	-3.0%
(47) CCn1c(CCCNC(=O)c2cccs2)nc2ccccc21
    -0.2	2	0.4%	6.1	-7	24%	2.0%
(48) COC(=O)C1=C(C)N(CCCC(=O)O)C(=O)NC1c1cccc(OC)c1 (stereo not given)
    -0.2	-11	-0.3%	nt	nt	nt	1.3%
(49) Cc1cccc(Nc2nnc(SCC(=O)Nc3ncc(C(F)(F)F)cc3Cl)s2)c1C
    0.7	-2	4.9%	9.6	-1	-8%	0.8%
(50) O=C1CCn2nc(-c3ccc(Cl)cc3)cc2N1
    -0.2	7	-2.2%	2.0	16	6%	0.8%
(51) N#CCC(=O)Nc1ccc(C(=O)OCC(=O)NC(=O)NCc2ccco2)cc1
    1.3	6	0.6%	nt	nt	nt	1.5%
(52) COc1ccc(/C=N/n2c(COc3ccccc3)n[nH]c2=S)cc1OC
    -1.3	-17	-0.2%	2.8	7	?	-0.6%
(53) COCCN(CC1CCCN(C2Cc3ccccc3C2)C1)C(=O)c1cccs1 (stereo not given)
    -0.5	10	0.0%	3.5	6	5%	nt
(54) O=C(NN1C(=O)C2C3C=CC(C3)[C@H]2C1=O)c1cccnc1 (stereo not given in full)
    -0.3	-17	-2.0%	2.5	3	8%	1.0%
(55) Cc1ccc(CNC(=O)COC(=O)c2ccccc2OCC(=O)Nc2ccc(Br)cc2)cc1
    -0.4	nt	1.1%	nt	nt	nt	2.6%
(56) CCc1c(O)nc(SCC(=O)NC(C)(C)C)n(-c2ccccc2)c1=O
    0.4	27	-0.7%	0.4	-4	8%	-1.3%
(57) Cc1nc2nc(CCNS(=O)(=O)c3ccc(Cl)cc3)cn2nc1C
    -0.7	-12	-1.0%	1.9	4	16%	4.2%
(58) CCc1cccc(C)c1NC(=O)C1CC(=O)N(C2CCCC2)C1 (stereo not given)
    0.3	29	-0.2%	nt	6	nt	1.1%
(59) CC(C)N(C(=O)CSc1nn2c(=O)c(C(C)(C)C)nnc2s1)c1ccccc1
    0.7	3	-1.8%	2.3	4	-9%	-3.9%
(60) CCOc1cc(/C=C/C(=O)OCC(=O)N(CC)C2CCS(=O)(=O)C2)cc(Cl)c1OC (stereo not given)
    -0.4	-5	1.0%	nt	nt	nt	-15%

(list continues)
Order of values: TRPML1 agonist	TRPML1 inh	PINK1 expr mod	Menin MLL FP FL	TRPV1 potentiator	Sfp PPTase inh	ClpP mod
(61) CC(=O)Nc1ccc(Oc2ccc(S(=O)(=O)N3CCCC3)cn2)cc1
    0.3	-6	-1.1%	nt	0	nt	-1.5%
(62) Cc1nnc(SCc2nnc(-c3ccccc3Br)o2)s1
    -0.1	11	-0.9%	2.7	1	7%	nt
(63) C=C(C)C(=O)Nc1cccc(C2=NOC3(C2)C[C@H](C(N)=O)N(C(=O)C(c2ccccc2)c2ccccc2)C3)c1 (stereo not given in full)
    -0.3	-14	-1.1%	-2.8	?	3%	-7.9%
(64) Nc1nc(-c2ccc(Br)s2)c(Br)s1
    2.4	-1	3.1%	-0.1	8	35µM*	-1.3%

Screening results: PubChem BioAssay, National Center for Advancing Translational Sciences (NCATS)
